Screening data: PubChem, several laboratories
MT1-MMP reporter = inhibitors of MT1-MMP promoter transcription, cell-based, luciferase reporter, luminescence (AID 618); 0.62% of 87,000 active; calls from a first round at 10 µM; hits with a dose series show EC50 in µM; MT1-MMP promoter luciferase reporter cells, luminescence;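 active = over half of the reporter light lost at 10 µM or EC50 under 50 µM; inactive = the rest and hits that failed the dose series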;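 note: actives suppress MT1-MMP promoter-driven transcription so potencies describe inhibitors; HT1080 fibrosarcoma cells; overnight exposure; toxic or luciferase-blocking compounds were not removed from the actives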
Hsc70 = small molecules displacing fluorescent ligand from Hsc70 – biochemical, fluorescence polarization, primary screen (AID 568); 83,000 tested, under 10 active; displacement, % at 20 µM, or IC50 in µM where a hit was titrated; Hsc70 fluorescence polarization, probe displacement; higher % means a stronger effect; strong numbers were not always called active;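 active = displacement above 50% without optical interference and an IC50 on retest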;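 note: ATPase domain with a fluorescein-tagged ATP probe; 0% = vehicle and 100% = excess ADP; read after one hour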
WNV NS2B-NS3 inh = WNV NS2B-NS3 proteinase inhibition; WNV NS2B-NS3 protease, fluorogenic substrate Ex360/Em465; active compounds read low; P06935; AID 577; z-score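 (tested at a level between 10 and 100 µM)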; 0.18% of 65,000 active;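 active = z-score at -3 or under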;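 note: score is relative to mean and spread of the compound wells of a plate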
Target sequence (P06935 1371-1501 limits assumed): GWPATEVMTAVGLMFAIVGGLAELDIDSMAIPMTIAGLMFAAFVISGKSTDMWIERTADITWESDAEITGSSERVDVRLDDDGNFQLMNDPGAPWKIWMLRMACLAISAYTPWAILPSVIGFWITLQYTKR
Target sequence (P06935 1502-1679 limits assumed): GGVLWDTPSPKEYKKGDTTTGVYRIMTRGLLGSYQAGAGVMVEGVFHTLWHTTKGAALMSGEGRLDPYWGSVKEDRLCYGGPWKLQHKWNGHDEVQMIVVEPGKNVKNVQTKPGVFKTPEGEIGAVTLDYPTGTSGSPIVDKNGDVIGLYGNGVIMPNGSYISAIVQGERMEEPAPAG
* marks the source's active call; other numbers are inactive results; i = inactive; . = no result given.

SMILES | MT1-MMP reporter | Hsc70 | WNV NS2B-NS3 inh
CCOc1ccc(/C(O)=C2/C(=O)C(=O)N(CCOCCO)C2c2ccccc2)cc1 (stereo unspecified) | i | 6.7% | -1.19
CCOC(=O)N1CCN(CC(=O)Nc2c(C(=O)OC)[nH]c3ccccc23)CC1 | i | 1.0% | -0.39
COCCn1c(C)cc(C(=O)CSc2ccc(NC(C)=O)cc2)c1C | 8.54µM* | -2.9% | -1.62
Cc1nc2ncnn2c(N2CCN(C(=O)Cc3cccs3)CC2)c1C | i | 0.1% | -1.77
CC(C)(C)C(=O)/C=C(\N)c1ccccn1 | i | 3.2% | -0.36
Cc1cnc(C)c(N2CCC(C(=O)NCc3cccs3)CC2)n1 | i | -2.7% | -0.12
O=C(NCc1ccco1)c1ccc(=O)[nH]n1 | i | 1.8% | 0.78
CC(C)(C)c1nc2sc3c(c2c(=O)o1)CCCC3 | i | -0.3% | .
CCSc1nnc(NC(=O)CSc2c(Cl)cccc2Cl)s1 | i | -0.2% | .
COc1ccc(-n2c(Cc3cccn3C)nnc2SCC(=O)Nc2ccc(F)cc2)cc1 | i | -1.0% | 0.3
Cc1oc2cc(OC(C)C(=O)O)ccc2c(=O)c1Oc1ccccc1 (stereo unspecified) | i | 1.2% | -1.05
O=C(COC(=O)c1ccncc1)Nc1cc(Cl)ccc1Cl | i | -2.3% | .
CCOC(=O)N1CCN(C(=O)C2CCN(c3ncnc4c3sc3cccc(F)c34)CC2)CC1 | i | 0.0% | -0.87
O=C1c2ccccc2C(=O)C12OC(c1ccccc1)C1(C(=O)c3ccccc3C1=O)C2c1ccc([N+](=O)[O-])cc1 (stereo unspecified) | i | 3.7% | .
C=CCn1c(SCC(=O)Nc2cc(NC(C)=O)ccc2OC)nnc1-c1cccnc1 | i | 1.7% | 1.3
COC(=O)c1ccccc1NC(=O)CN1CCC(NC(=O)c2ccccc2C)CC1 | i | -4.6% | 2.6
N#Cc1ccc(COC(=O)c2ccc3c(=O)[nH]c(CN4CCOCC4)nc3c2)cc1 | i | -4.4% | 0.6
CC(=O)NCC(=O)OCC(=O)c1ccc2ccccc2c1 | i | -1.2% | .
CCN(CC)S(=O)(=O)c1ccc2[nH]cc(C(=O)NCCN3CCCCC3C)c(=O)c2c1 (stereo unspecified) | i | 2.4% | 0.78
N#Cc1c(-c2ccco2)cc(C2CC2)nc1SCC(=O)c1ccccc1 | i | -4.7% | -0.74
Cc1cc(=O)[nH]c(SCc2nc3ncccn3c2Br)n1 | i | -2.3% | -0.64
COc1ccccc1N1CCN(C(=O)CSc2nc(N)cc(=O)[nH]2)CC1 | i | -3.1% | .
CCC(NC(=O)NCCCn1ccnc1)(C(F)(F)F)C(F)(F)F | i | 1.1% | -1.76
CCC(=O)c1ccc(OCC(O)CN2CCN(c3cccc(C(F)(F)F)c3)CC2)cc1 (stereo unspecified) | i | -4.6% | -0.3
COC(=O)c1ccc(C(=S)N2CCOCC2)cc1 | i | 0.3% | -0.21
CN(C)CCNC(=O)c1ccccc1-c1ccccc1 | i | 6.8% | 0.83
OC1(c2ccc(Br)cc2)CCNCC1 | i | -2.9% | 1.05
CC1Cc2nc(SCC(=O)Nc3nccs3)n(C)c(=O)c2S1 (stereo unspecified) | i | 7.1% | -0.23
Cc1cccc(/N=C/c2c(O)cc(C)oc2=O)n1 | i | -4.5% | 0.89
O=C(CN1CCN(c2ccc(Cl)cc2)CC1)c1ccc2c(c1)OCO2 | i | 2.6% | 1.37

A second format for some results above:
Cc1cccc(/N=C/c2c(O)cc(C)oc2=O)n1
- MT1-MMP reporter: i
- Hsc70: -4.5%
- WNV NS2B-NS3 inh: 0.89
O=C(CN1CCN(c2ccc(Cl)cc2)CC1)c1ccc2c(c1)OCO2
- MT1-MMP reporter: i
- Hsc70: 2.6%
- WNV NS2B-NS3 inh: 1.37

Other results:
SMILES | MT1-MMP reporter | Hsc70 | WNV NS2B-NS3 inh
COC(=O)C1(C)NC(c2cccs2)C2C(=O)N(c3ccccc3F)C(=O)C21 (stereo unspecified) | i | -0.4% | 0.04
CCC1CCCCN1Cc1ccc(OC)c(C)c1 (stereo unspecified) | i | -0.8% | .
COc1c2c(nc3occc13)C(CC=C(C)C)(OC)C(OC(C)=O)CC2 (stereo unspecified) | i | -5.3% | .
CC1CCCCN1CCCNC(=O)C1CCN(c2nc3ccccc3o2)CC1 (stereo unspecified) | i | 1.0% | 0.58
O=C(CSc1nc2ccccc2c(=O)n1Cc1ccco1)NCc1ccco1 | i | 1.0% | -0.58
COc1ccc2[nH]c(=O)c(CN(CC3CCCO3)C(=O)Nc3ccccc3)cc2c1 (stereo unspecified) | i | -1.6% | -0.68
COc1cccc(C(c2sc3ncnn3c2O)N2CC(C)OC(C)C2)c1 (stereo unspecified) | i | 2.6% | -0.46
CCn1c(=O)c2c3c(sc2n(C)c1=O)CCC3 | i | -6.8% | -0.73
COc1ccc(N2C(=O)CC(N3CCN(c4ccccc4F)CC3)C2=O)cc1 (stereo unspecified) | i | -5.9% | -0.2
Cn1c(=O)c2c(nc(OCc3cccnc3)n2Cc2c(F)cccc2Cl)n(C)c1=O | i | 5.6% | -0.2
CCOc1cc(-c2c(C#N)c(N)nc3c2CCCC3)ccc1O | i | 6.9% | 0.57
CCOC(=O)c1sc(NCC2CCCO2)nc1C (stereo unspecified) | i | -4.1% | -0.94
CC(=O)Cc1ccccc1OCC(=O)O | i | 5.3% | -0.17
COc1cc(C(=O)Nc2nccs2)cc(OC)c1OC | i | -1.0% | -0.67
Cc1ccccc1Cn1cc(/C=N/n2cnnc2)c2ccccc21 | i | -2.0% | -0.09
CCOC(=O)Cn1c(=NC(=O)CSC(C)=O)sc2ccccc21 | i | -0.4% | 1.78
Nn1c(N2CCCCC2)nc2ccccc21 | i | -2.6% | .
O=C(CN(C(=O)CNS(=O)(=O)c1ccccc1)c1ccc2c(c1)OCCO2)NC1CCCCC1 | i | -7.7% | -1
O=C(O)CC12CSc3[nH]c(=O)sc3C1c1ccccc1OC2=O (stereo unspecified) | i | 3.5% | -1.04
Cc1ccc2[nH]c3c(c2c1)CN(C(=O)CN1CCN(c2ccccc2)CC1)CC3 | i | 7.7% | -1.33
CC(CCc1ccccc1)NC(=O)c1ccc(Cl)nc1 (stereo unspecified) | i | 3.6% | .
Cc1ccccc1Cn1c(C(=O)OC(C)C)cc2c1ccn2C | i | -2.2% | .
O=C(O)CCn1c(C(=O)O)cc2sccc21 | i | 2.3% | 1.29
Cc1ccc(NC(=O)C2C3CC4OC(=O)C2C4C3)cc1Cl (stereo unspecified) | i | 3.8% | -6.43*
CC1(C)CC(=O)C=C(NCC2CCCO2)C1 (stereo unspecified) | i | -3.3% | -0.54
COc1cccc(/C=N/n2cnc3ccccc32)c1OC | i | -2.2% | .
CCn1c(-c2ccccc2)c[nH]c1=S | i | 0.7% | .
Cc1ccc(Cn2nnc3c(=O)[nH]c(C4CCN(S(=O)(=O)c5ccccc5)CC4)nc32)cc1 | i | -3.0% | -0.38
Cc1c(C#N)c2ccccc2n1CC(=O)N1CCc2ccccc2C1 | i | -2.7% | -0.11
CCCCn1c(SCC(=O)N2CCOCC2)nnc1-c1cccs1 | i | -5.3% | -0.82

Part of the list above in order of SMILES length, falling:
SMILES | MT1-MMP reporter | Hsc70 | WNV NS2B-NS3 inh
Cc1ccc(NC(=O)C2C3CC4OC(=O)C2C4C3)cc1Cl (stereo unspecified) | i | 3.8% | -6.43*
CCCCn1c(SCC(=O)N2CCOCC2)nnc1-c1cccs1 | i | -5.3% | -0.82
CC1(C)CC(=O)C=C(NCC2CCCO2)C1 (stereo unspecified) | i | -3.3% | -0.54
CCn1c(-c2ccccc2)c[nH]c1=S | i | 0.7% | .

Complete entries, quoted from the list. Order of screens: MT1-MMP reporter	Hsc70	WNV NS2B-NS3 inh
Record of O=C(CN(C(=O)CNS(=O)(=O)c1ccccc1)c1ccc2c(c1)OCCO2)NC1CCCCC1 = i	-7.7%	-1
Record of Cc1c(C#N)c2ccccc2n1CC(=O)N1CCc2ccccc2C1 = i	-2.7%	-0.11
Record of Cc1ccccc1Cn1c(C(=O)OC(C)C)cc2c1ccn2C = i	-2.2%	.
Record of Cc1ccc(Cn2nnc3c(=O)[nH]c(C4CCN(S(=O)(=O)c5ccccc5)CC4)nc32)cc1 = i	-3.0%	-0.38
Record of Cc1ccc2[nH]c3c(c2c1)CN(C(=O)CN1CCN(c2ccccc2)CC1)CC3 = i	7.7%	-1.33

Remaining list, next part:
SMILES | MT1-MMP reporter | Hsc70 | WNV NS2B-NS3 inh
Cc1ccc2cc(C#N)c(NCCNC(=O)C3CCC3)nc2c1C | i | 3.1% | -0.4
Clc1ccccc1N1CCN(c2ncnc3nc[nH]c23)CC1 | i | 2.6% | -0.11
Cc1ccc(NC(=O)OCC(F)(F)C(F)F)cc1NC(=O)OCC(F)(F)C(F)F | i | -7.2% | 0.73
CC(C)(CN1CCCCC1)NS(=O)(=O)c1ccc(Cl)cc1 | i | -3.0% | 0.06
Nc1ccc(C(=O)OCc2nc3c(ccc4ccccc43)[nH]2)cc1 | i | -0.2% | .
CCC(C)NC(=O)CSc1ccc(Cl)cc1 (stereo unspecified) | i | 1.3% | .
COc1cc(/C=C2/S/C(=N/S(=O)(=O)c3ccccc3)NC2=O)c([N+](=O)[O-])cc1OC | i | -1.4% | .
COc1ccc(C(O)c2coc3ccc(O)c(CN(C)C)c23)cc1 (stereo unspecified) | i | 1.2% | -1.39
CCc1ccc(NC(=O)Cn2c(=O)oc3cc(S(=O)(=O)N4CCOCC4)ccc32)cc1 | i | 2.3% | -0.9
CCc1nc2ccccc2n(CC)c1=O | i | -1.4% | 1.28
N#CC1=C(N)c2ccccc2CC12CCCCC2 | i | 3.5% | .
CC(=O)Nc1ccc(S(=O)(=O)Nc2ccc(S(=O)(=O)N3CCCCCC3)cc2)cc1 | i | 1.0% | 1.12
CCOC(=O)c1ccc(NC(=O)CCC(CC)C(=O)O)cc1 (stereo unspecified) | i | -3.5% | 0.03
COc1ccccc1-c1c(C)nn2c(N3CCCCCC3)cc(C)nc12 | i | 4.7% | 0.39
O=c1oc(-c2ccccc2F)nc2c1cnn2-c1ccccc1 | i | 0.7% | .
Cc1onc(-c2c(F)cccc2Cl)c1C(=O)N1CCc2ccccc21 | i | -0.5% | .
COc1ccc(C(CNC(=O)c2ccc(N3CCCC3=O)cc2)N(C)C)cc1 (stereo unspecified) | i | -0.2% | .
COc1ccc(-c2nc(CS(=O)CC(=O)NCc3ccc4c(c3)OCO4)c(C)o2)cc1 (stereo unspecified) | i | -0.9% | -0.34
Cc1ccc(S(=O)(=O)CC(=O)Nc2nc(-c3ccccc3)cs2)cc1 | i | -1.6% | .
COc1ccc(NC(=O)c2ccc(COc3ccccc3Br)o2)cc1OC | i | -3.6% | 0.15
C=CCn1c(SCc2nc3ccccc3c(=O)[nH]2)nnc1-c1cc2cc(Cl)ccc2o1 | i | 0.2% | 0.98
Cc1csc2nc(=O)c3ccccc3n12 | i | 2.0% | -2.52
C=CCn1c(N2CCCC2)nc2c1c(=O)[nH]c(=O)n2C | i | -8.2% | -0.58
O=C(C1CCN(S(=O)(=O)c2ccc(-n3cnnn3)cc2)CC1)N1CCN(c2ccccc2)CC1 | i | -0.6% | -0.04
COc1ccc(N2C(=O)C3CCCN3C2c2cccs2)cc1 (stereo unspecified) | i | 7.9% | 0.47
CCOC(=O)CN(C(=O)CSc1nnc(COc2ccc(OC)cc2)n1C)c1ccccc1 | i | -0.8% | -0.64
CC1CN=C(c2cccn2Cc2ccc(F)cc2Cl)O1 (stereo unspecified) | i | -4.8% | 0.66
CCN1CCCC1Cn1cnc2c([nH]c3cc(OC)ccc32)c1=O (stereo unspecified) | i | 1.6% | .
Cc1cccnc1NC(=O)c1ccc2nc(N)sc2c1 | i | 3.2% | -1.25
Cn1nc(C(F)(F)F)c2cc(NC(=O)OCc3ccc(C(C)(C)C)cc3)sc21 | i | 2.7% | .
O=C(CNS(=O)(=O)c1ccc(C(=O)N2CCCCC2)cc1)N1CCCCC1 | i | 0.3% | -1.06
CCCCCN1C2=NCCN2c2ccccc21 | i | -3.0% | .
CCN(CC)S(=O)(=O)c1ccc2nnn(OCC(=O)Nc3cccc(C#N)c3)c2c1 | i | 5.6% | -0.26
CCOC(=O)CSc1nnc(CNC(=O)c2ccc(OC)cc2)n1-c1ccc(OC)cc1 | i | -4.0% | -1
C=CCn1c(-c2ccc(OC)cc2)nc2nc3ccccc3nc21 | i | 3.5% | .
CC(C)CCN(C)C1CCN(S(=O)(=O)c2cccc(C(F)(F)F)c2)CC1 | i | -1.3% | -0.07
Cc1ccc(S(=O)(=O)Nc2cccc(-c3cn4ccsc4n3)c2)cc1 | i | -4.2% | 0.54
CCOC(=O)C1CCN(C(=O)CSCCSCC(=O)N2CCC(C(=O)OCC)CC2)CC1 | i | 2.5% | 0.19
Cc1c2c(nc3c(C(=O)NC4CC4)cnn13)CCCC2 | i | 3.7% | 0.64
Cc1cc(=O)n2nc(-c3ccccc3)sc2n1 | i | 1.9% | 0.00369
O=C(NC1CCCC1)C1c2ccccc2C(=O)N1CCCN1CCOCC1 (stereo unspecified) | i | -3.5% | -2.56
CCCCCCCOC(=O)c1ccc(OC(=O)c2cccnc2)cc1 | i | 4.6% | .
Cc1ccc(C(C)C)cc1OCCOCCN1CCCC1 | i | 0.6% | .
CCc1cc(=O)oc2cc(OCC(=O)N3CCc4ccccc43)ccc12 | i | 5.6% | -0.72
O=C(CCc1ccccc1)c1ccc2c(c1)OCCCO2 | i | 5.9% | .

An excerpt; rates above refer to the full screens.
